NPYLR7 agonist: activates Aedes aegypti NPYLR7 receptor | activation, % at 10 µM | HEK293T NPYLR7/Galpha15, GCaMP6s calcium fluorescence | hit rate 0.15% among 270,000; in the data active = activation above about 40%;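 note: 0% = vehicle and 100% = reference agonist at the receptor; some compounds past the cut are filed as inactive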
NPYLR7 agonist max-min: further read-out of NPYLR7 agonist, marked with its call; activation, %; measured here: Max-Min RFU normalised activation; some inactives read as strong as hits;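 span of the calcium signal over five minutes; 0% = vehicle and 100% = native peptide agonist; compound fluorescence can raise it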
An asterisk follows results filed as active; i = inactive; & = joins results of further samples. Some of the compounds tested, so the mix of outcomes need not match the whole.

Under each structure – NPYLR7 agonist max-min, NPYLR7 agonist
> CCOc1ccc(-c2nc(COC(=O)c3nnn(-c4ccc(C)cc4)c3C)c(C)o2)cc1OC
 : 8, 12
> Cc1ccc(CNC(=O)C2(c3ccc(Cl)cc3)CCC2)n1C
 : -4, -3
> Nc1c(C(=O)CSc2nnnn2C2CCCC2)c(=O)[nH]c(=O)n1C1CC1
 : 2, 3
> COc1ccccc1-c1nccn1-c1ccc(-c2ccn[nH]2)cc1
 : 2, 4
> CN(C)C(=O)CN(C)S(=O)(=O)N(C)Cc1ccccc1
 : 0, 0
> CCn1nnc2c(SCc3cccnc3)ncnc21
 : 23, 0
> N=C(N)N1CCN(c2ccccc2)CC1
 : 4, 8
> CN(C)c1ccc(NC(=O)c2cccc(N(C)C)c2)nc1
 : -18, -11
> C=CCN(Cc1cccnc1)C(=O)c1nc2ccccc2s1
 : -8, -2
> CC(C)c1cc(Oc2ccc(F)cc2)nc(SCc2ccccc2F)n1
 : 2, -5
> COCc1cccc(NC2(c3ccccc3)C(=O)c3ccccc3C2=O)c1
 : -24, -18
> CCC(C)(c1ccc(C=O)s1)c1ccc(C=O)s1
 : 1, 5
> COc1ccc(CCNC(=O)C(=O)NCC2OCCCN2S(=O)(=O)c2cc(F)ccc2F)cc1 (stereo not drawn)
 : 0, -1
> C=C1c2ccccc2C(=O)N1CC(=O)NCc1cn2ccccc2n1
 : 0, 1
> O=C(NCCN1CCn2cc(OCc3ccccc3)c(=O)cc2C1=O)C1CC1
 : 0, 10
> CCCCCCCCCCCC(=O)N1CCC2(CC1)NC(=O)c1cccc(C)c1N2
 : 3, 12
> COc1cccc(C(=O)CSc2nnc(NC(=O)COCc3ccccc3)s2)c1
 : 5, 0
> COc1ccc(-n2c(CSc3ncccn3)n[nH]c2=S)cc1
 : 4, -4
> O=C(COc1ccc(-n2cnnn2)cc1)Nc1cccc(Br)c1
 : 12, -7
> O=C(Nc1ccc(-c2ccccc2)cc1)C1CCCCC1C(=O)N1CCc2c([nH]c3ccccc23)C1 (stereo not drawn)
 : -12, -4
> CC(C)N(Cc1cnn(C)c1)C(=O)CCc1nnc(CCCc2ccccc2)o1
 : 7, 4
> CCCCc1ccc(Nc2nc(N3CCOCC3)c3[nH]cnc3n2)cc1
 : 1, 3
> Cc1c(C#N)c(NC(=O)CN2c3ccccc3CCC2C)n(CC2CCCO2)c1C (stereo not drawn)
 : 0, 3
> COC(=O)c1ccc(CSc2nnc(C)c3cnn(-c4ccc(C)c(C)c4)c23)o1
 : -12, -6
> Cc1ccc(-c2cc(C(=O)O)[nH]n2)cc1C
 : -8, -5
> Cc1nc(SCC(=O)N2CC[C@@H](F)C2)n[nH]1
 : -9, -2
> Cc1noc(C)c1CN1CCCCCC1CC(O)c1ccco1 (stereo not drawn)
 : 3, 9
> CCCn1cc(CN2CCC(C(=O)Nc3cccc(-c4cscn4)c3)CC2)c(C)n1
 : 0, 5
> Cc1cccc(Oc2cc(C(F)(F)F)nc(SCc3cccc(C#N)c3)n2)c1
 : 0, 1
> Clc1ccc(C2=Nc3ncnn3C(c3ccccc3)C2)cc1 (stereo not drawn)
 : 8, 13
> CC(C)CN1CCC(NC(=O)NC(C)Cc2c(F)cccc2F)CC1 (stereo not drawn)
 : 3, 10
> COc1cc(NS(=O)(=O)c2ccc(NC(=O)c3cc4ccccc4oc3=O)cc2)nc(OC)n1
 : -14, -9
> COc1cccc(NC(=O)C2(C)CCN2Cc2ccc(OC(C)C)cc2)c1 (stereo not drawn)
 : -1, 4
> CN=c1scc(-c2ccc(F)cc2)n1N=C(C)c1ccncc1
 : -8, -3
> CCN1CCN(C(=O)CCN(CC(C)C)c2nc(-c3cccc(Br)c3)nc3ccccc23)CC1
 : 18, 21
> Cc1ccc(CN2CCN(N=Cc3c(F)cccc3Cl)CC2)c(C)c1
 : -8, -2
> Cn1nnc2c(N3CCN(C(=O)C4CCCC4)CC3)ncnc21
 : 13, 12
> CCOC(=O)C1=C(C)N(c2ccccc2)C(C)=C(C(=O)OCC)C1c1cccc([N+](=O)[O-])c1
 : -19, -10
> COc1ccc(CC(=O)Nc2nnc(C3CCCCC3)s2)cc1
 : -8, -4
> CC12CCC(CC1=NNc1nc3ccccc3o1)C2(C)C (stereo not drawn)
 : -11, -8
> C/C(CC(=O)Nc1ccccn1)=N\NC(=O)c1cccc(C)c1
 : -5, -1
> CCc1nnc(-c2cc3ccccc3n2CC(=O)Nc2ccc3c(c2)OCO3)o1
 : 1, 1
> Cc1c(C(=O)N2CCN(S(=O)(=O)c3cc(Cl)ccc3Cl)CC2)cnn1-c1ccccc1
 : -2, 1
> CSc1cccc(CN2CCCC(CNC(=O)c3cc4ccccc4[nH]3)C2)c1 (stereo not drawn)
 : 6, 18
> O=C(NCC(O)c1cccc(F)c1)C1SCCc2ccccc21 (stereo not drawn)
 : 3, 4
> Cc1ccc(OCC(=O)NNC(=O)CCOc2ccccc2)cc1
 : -7, -1
> C=CCC(O)(CC=C)c1ccc(CN(CCOC)Cc2ccc3c(c2)OCO3)o1
 : 9, 9
> CCCc1cc(=O)[nH]c(-n2nc(C)cc2NC(=O)c2cccc3ccccc23)n1
 : 13, 17
> COC(=O)c1c(N)sc2c1CCC(C(C)(C)C)C2 (stereo not drawn)
 : 46, 4
> Cc1ccc2c(c1)nc(CCNC(=O)c1ccn[nH]1)n2C
 : 7, 9
> Cc1c(C(=O)NS(C)(=O)=O)nnn1-c1ccccc1Cl
 : 1&-1, 5&1
> CCOc1ccccc1C(=O)Nc1c(C)nc2cc(C)ccn2c1=O
 : -7, -8
> COCCN(Cc1cccs1)C(=O)c1ncc(F)cc1F
 : -3, 1
> C[n+]1ccc(C(=O)C(=C(O)c2ccccc2)c2nc3ccccc3[nH]2)cc1
 : -5, -4
> O=C(NC1CCCC[C@H]1N(Cc1ccc(Cl)cc1)C(=O)c1ccccc1)C1CCCN(C(=O)C2CCCC2)C1 (stereo partly drawn)
 : 10, 13
> COc1ccc(C#N)c(NC(=O)c2cncc(C)c2)c1
 : -8, -8
> COc1cc(C=C2SC(=S)N(Cc3ccco3)C2=O)ccc1OCC(N)=O
 : 6, 10
> NS(=O)(=O)c1cnccc1NCc1ccccc1
 : 2, 3
> Cc1ccc(C2=NOC(C(=O)NCC(=O)Nc3ccc(F)cc3)C2)cc1 (stereo not drawn)
 : 29, 19
> CCCCN(c1ccc2cccc(O)c2n1)c1ccc2cccc(O)c2n1
 : -12, -5

6 entries drawn at random from those above:
Under each structure – NPYLR7 agonist max-min, NPYLR7 agonist
> COc1cc(C=C2SC(=S)N(Cc3ccco3)C2=O)ccc1OCC(N)=O
 : 6, 10
> C/C(CC(=O)Nc1ccccn1)=N\NC(=O)c1cccc(C)c1
 : -5, -1
> Cc1ccc(CN2CCN(N=Cc3c(F)cccc3Cl)CC2)c(C)c1
 : -8, -2
> NS(=O)(=O)c1cnccc1NCc1ccccc1
 : 2, 3
> Cc1c(C(=O)N2CCN(S(=O)(=O)c3cc(Cl)ccc3Cl)CC2)cnn1-c1ccccc1
 : -2, 1
> Cn1nnc2c(N3CCN(C(=O)C4CCCC4)CC3)ncnc21
 : 13, 12

Entries of single compounds, quoted from the list:
`COc1ccc(CCNC(=O)C(=O)NCC2OCCCN2S(=O)(=O)c2cc(F)ccc2F)cc1` (stereo not drawn) across the screens: NPYLR7 agonist max-min = 0; NPYLR7 agonist = -1
`Clc1ccc(C2=Nc3ncnn3C(c3ccccc3)C2)cc1` (stereo not drawn) across the screens: NPYLR7 agonist max-min = 8; NPYLR7 agonist = 13

(more compounds)
Under each structure – NPYLR7 agonist max-min, NPYLR7 agonist
> CC1=C(C(=O)OC(C)C)C(c2cccs2)NC(=S)N1 (stereo not drawn)
 : -10, -7
> O=c1[nH]c2ccccc2c(O)c1-c1nc2ccccc2c(=O)[nH]1
 : -4, -1
> CCOC(=O)c1c(NC(=O)c2cc([N+](=O)[O-])ccc2Cl)sc2c1CCCC2
 : 1, 2
> O=c1ccc2cc(O)c(O)cc2o1
 : 2, 1
> CSc1[nH]c(=O)cc(C)c1C(=O)O
 : -1, 0
> Cc1ccc(-c2cc3c(=O)n(CC(=O)Nc4cc(C(F)(F)F)ccc4Cl)ccn3n2)cc1
 : 3, 3
> CC(C)(CNS(=O)(=O)c1ccc(Br)s1)N1CCOCC1
 : -6, -6
> COCCOc1nc(-c2ccc(C)cc2)n(-c2ccc(NC(=O)c3cccc(F)c3)cc2)n1
 : 1, -1
> CCOC(=O)N1CCC(NC2CCN(c3ccc(NC(=O)Cc4cccc(Cl)c4)cc3)CC2)CC1
 : 0, 10
> CC(c1ccc(-n2cncn2)cc1)N(C)C(=O)NCC1COc2ccccc2O1 (stereo not drawn)
 : 1, 3
> Cc1ccc(NC(=O)C2CC2c2ccco2)cc1N1CCOC1=O (stereo not drawn)
 : -25, -24
> Cc1c(C(=O)NCc2cccc([N+](=O)[O-])c2)sc(=O)n1Cc1ccc(F)cc1
 : 4, 9
> COc1ccc(C2c3cccn3CCCN2Cc2ccccc2Cl)cc1 (stereo not drawn)
 : 16, 22
> CCNC(=O)[C@@H]1C[C@H](N)CN1Cc1cccc2c1OC(F)(F)O2
 : 4, 11
> COc1cc([N+](=O)[O-])cc2c1NC(C(C)C)C1CC=CC21 (stereo not drawn)
 : 8, -3
> Cc1ccc(C(=O)Nc2c3c(nn2-c2ccccc2C)CSC3)cc1
 : 7, 1
> CC(Nc1ccc(CS(=O)(=O)C(C)C)cc1)c1ccccc1 (stereo not drawn)
 : i, 0
> CC(C)c1noc(CN2CCC(N3CCCC(C(=O)N4CCCC4)C3)CC2)n1 (stereo not drawn)
 : 5, 19
> CCC(=O)Nc1ccc(-c2c(-c3ccco3)nn(-c3cccc(C)c3)c2OC(C)=O)cc1
 : 12, 7
> CC(C)CN1CCN(C(=O)NCCc2ccc(F)cc2)C(C)C1=O (stereo not drawn)
 : 7, 9
> COc1ccc(-c2c[nH]c(=S)n2-c2ccccc2)cc1
 : -16, -12
> C(=C\c1cccc(N2CCNCC2)n1)/c1ccccc1
 : -1, 0
> Cc1cc(C)cc(Oc2cc(C(C)(C)C)nc(SCc3cccc(Cl)c3)n2)c1
 : 4, 1
> COCCNC(=O)C1CCCN(C2CCN(c3ccc4ccccc4n3)CC2)C1 (stereo not drawn)
 : 14, 22
> c1ccc(COC2CCCN(Cc3cc4n(n3)CCNC4)C2)cc1 (stereo not drawn)
 : 2, 4
> COc1ccc(-c2cc(C(F)(F)F)n3ncc(C(=O)Nc4cccc(C(F)(F)F)c4)c3n2)cc1
 : -14, -8
> CCN(CC)CCCC(C)NC(=O)c1cc(-c2cccn2C)nn1-c1cc(C)ccc1C (stereo not drawn)
 : 1, -2
> CCC(C)N(CC(=O)N(CCc1ccccc1)Cc1ccco1)C(=O)c1cccs1 (stereo not drawn)
 : 3, -3
> CCc1ccc2nc(N(CCCN3CCOCC3)C(=O)c3ccco3)sc2c1
 : -6, -3
> COc1ccc(CCNC(=O)c2nnn(CC(=O)Nc3ccc(C)cc3C)c2N)cc1OC
 : -18, -10
> Cc1cc(=O)oc2cc(NC(=O)C3CCC(=O)N3)ccc12 (stereo not drawn)
 : -12, -10
> N#Cc1ccccc1NC(=O)c1n[nH]c([N+](=O)[O-])c1Br
 : -5, -3
> CN1C(=O)NC(c2ccc(C(F)(F)F)cc2)C2=C1CN(Cc1ccccn1)C2=O (stereo not drawn)
 : 1, -3
> CCC(=O)N=c1sc2c(Cl)ccc(C)c2n1C
 : 13, 15
> COCc1nnc(NS(=O)(=O)c2ccc(OC)cc2)s1
 : 14, 14
> COc1cccc(-n2ncc3c2C(Cc2cscn2)N(CCOc2ccccc2)C3=O)c1 (stereo not drawn)
 : 8, 16
> Cc1ccc(NC(C)(C(=O)NCC(C)(C)CO)c2ccccc2)cc1 (stereo not drawn)
 : -10, -2
> O=C(NC1CC(=O)N(CCc2ccccc2)C1)c1ccoc1 (stereo not drawn)
 : 0, 3
> CCc1ocnc1C(=O)N1CCCC(C(=O)c2ccccn2)C1 (stereo not drawn)
 : -1, 2
> Cc1cccc(Cn2c(=O)c(C(=O)NCc3ccccn3)nn(-c3ccc(C(C)C)cc3)c2=O)c1
 : 6, -1
> CCCCN(CC(=O)Nc1cc(C(C)(C)C)nn1-c1ccc(Cl)c(Cl)c1)C(=O)Nc1ccc(F)cc1F
 : 6, 0
> COc1cccc(CN2CCN(Cc3ccc(F)cc3Cl)CC2CCO)c1 (stereo not drawn)
 : 5, 9
> CCCn1nc(C)c(CNC(=O)C2(c3ccccc3F)CC2)c1C
 : 15, 26
> O=C(Nc1nnc2ccccn12)C1CCN(S(=O)(=O)Cc2ccccc2)CC1
 : 0, 2
> COc1ccc(C=NN=C(N)N)c(OC)c1OC
 : 3, 5
> O=C(CCn1c(=O)[nH]c(=O)c2ccccc21)NCCCCOc1ccc(F)cc1
 : -10, -10
> CO[C@H]1COC[C@@H]1NC(=O)c1ccc(CSc2ccccn2)cc1
 : 5, 7
> COC(=O)C1(NC(=O)c2ccc(S(=O)(=O)N3CCCCC3)cc2)CCCCC1
 : 9, 16
> COc1cccc(Nc2nc(C(=O)N3CCCC(C(=O)O)C3)cs2)c1 (stereo not drawn)
 : 13, 15
> O=C(CCc1ccc(Br)cc1F)N1CCCC1c1ccncc1 (stereo not drawn)
 : -3, -1
> CCOC(=O)C1CCCN(C(=O)c2cccc(Nc3c(Oc4ccccc4)cnn(Cc4ccccc4)c3=O)c2)C1 (stereo not drawn)
 : 14, 6
> COC(=O)[C@@H]1C[C@@H](NC(=O)c2c(C)cc(C)[nH]c2=O)CN1C
 : 2, 3
> CC(NC(=O)Cn1cnc2c(cnn2C)c1=O)c1ccc2ccccc2c1 (stereo not drawn)
 : -1, 0
> CC(C)c1cc(C(=O)N(C)CC2CCN(c3ccccc3)C2)no1 (stereo not drawn)
 : -8, -5
> COc1ccc(-c2c(C#N)c(SCC(=O)OC(C)C)nc(C)c2C(=O)Nc2ccccc2)cc1
 : -7, -1
> COCC(C)NC(=O)C1CCN(c2cc(C)nc(-c3cccnc3)n2)CC1 (stereo not drawn)
 : -1, 7
> COc1cc2c(cc1OC)CN(Cn1nc(-c3cccs3)n(C3CC3)c1=S)CC2
 : 8, 16
> O=C(NC(c1ccccc1)c1ccc2ccccc2n1)C1CCN(CCCN2C(=O)C3CCCCC3C2=O)CC1 (stereo not drawn)
 : 6, 6
